# Vaccinia Venus: inhibitors of vaccinia virus (Venus reporter); Vaccinia virus Venus reporter expression, fluorescence; Potency, µM (top dose mostly 36.5 µM), for the others: top-dose activity change, negative = inhibition, actives largely listed as inhibitors; 330,000 compounds, 0.46% hits; AID 720580; active means well fitted inhibition curve with a large enough effect; inconclusive means small, poorly fitted or top-dose-only effect; inactive means no such curve, though single readings can be large or run the other way; tested in A549 cells; also: nearly all actives have a fitted effect of over 30% in size; inactives centre near -10
# Vaccinia mCherry: inhibitors of vaccinia virus infection (mCherry reporter signal). Vaccinia virus mCherry reporter infection, fluorescence; about a quarter of the inactives have no number. Potency, µM (series often up to 36.5 µM), for inactives: at the top dose activity change, negative = inhibition, most hits filed as inhibitors. 310,000 compounds, 0.63% hits. AID 720579; active = well fitted inhibition curve with a large enough effect; inconclusive = small, poorly fitted or top-dose-only effect; inactive = no such curve, though single readings can be large or run the other way; tested in A549 cells; also: nearly all actives have a fitted effect of over 35% in size; inactives centre near -10
# Numbers without * were called inactive; i = inactive; ? = inconclusive; & = joins results of further samples; [ ] = remark or other dose. % is scaled to controls: 0 for no effect and ±100 for the full control effect; potency is read from the fitted curve at half-maximal effect. Hits appear at their usual frequency. About 0.82% of those tested had a hit in this group.
SMILES,Vaccinia Venus,Vaccinia mCherry
Cc1cc(C)n2nc(C(=O)NCc3ccco3)cc2n1,-12%,i
O=C(CCC(=O)N1CC2CCCN2c2ccccc21)NCc1ccccc1F (configuration not stated),-7%,-4%
COc1ccc(-c2cc(C(=O)N/N=C/c3cc(OC)c(OC)cc3OC)c3ccccc3n2)cc1,-6%,-10%
Cc1ccc(C(C(=O)NCC2CCCO2)N(C(=O)c2snc(C(N)=O)c2N)c2ccc(F)cc2)o1 (configuration not stated),14%,-10%
CCCCNC(=O)/C(C#N)=C/c1ccc(C(=O)OC)cc1,3%,9%
CC(C)c1ccc(CC(=O)N2CCC2(C)C(=O)Nc2ccccc2)cc1 (configuration not stated),?,-23%
OC(c1ccc(F)cc1)c1ncc(-c2cccc(C(F)(F)F)c2)[nH]1 (configuration not stated),?,-23%
COc1cccc(NC(=O)CSc2c3c(nc4ccccc24)CCCC3)c1,8%&-21%,-2%&-14%
CN(C)c1ccc(-c2nnn(CC(=O)Nc3ccccc3N3CCOCC3)n2)cc1,-20%,-25%
Cc1cccc(N2C(=O)N3[C@H](c4ccc(Cl)cc4)[C@@H]4C(=O)N(C5CCCCC5)C(=O)[C@@H]4[C@]3(Cc3ccc(Cl)cc3)C2=O)c1,-24%,i
Cc1c(-c2ccc(Br)cc2)[n+](=O)c2c(n1[O-])CCCCC2,-7%,-7%
CNC[C@@H]1OCc2cnnn2CCCC(=O)N([C@H](C)CO)C[C@H]1C,-14%,-9%
CCCCOc1ccc(C(=O)N2CCN(CCc3ccccn3)CC2)cc1,?,-7%
NC(=O)Cc1ccc(C(=O)c2ccc(F)cc2)s1,-19%,i
Cc1cccc(N(C)C(=O)C(Cc2ccccc2)NS(=O)(=O)c2cccc3nsnc23)c1 (configuration not stated),-10%,-14%
COc1ccc(CC(=O)Nc2ccccc2N2CCOCC2)cc1OC,-10%,-1%
CCn1c(SCC(=O)N2CCC(C)CC2)nc2c(c1=O)SCC2,-6%,-9%
Cc1cccc2sc(NC(=O)[C@@H]3CCCN3C(=O)c3cccs3)nc12,0%,-11%
O=C(COC(=O)c1cncc(Br)c1)Nc1nc(-c2ccc(F)cc2)cs1,-13%,-7%
CN(C)S(=O)(=O)c1cccc(NC(=S)Nc2ccc3cn[nH]c3c2)c1,9%,-3%
Cc1ccc(NC(=O)CN2C(=O)S/C(=C\C(=O)Nc3ccc(Cl)cc3)C2=O)cc1,-11%,-1%
COC(=O)c1sc(C(F)(F)F)c(-c2ccccc2)c1S(=O)(=O)N1CCCC1,-8%,-20%
CCOc1ccccc1NC(=O)CSc1nnc(CNC(=O)c2cccs2)o1,0%,-3%
CC(=O)c1ccc(NC(=O)CN2CCC(C(=O)c3ccc4c(c3)OCCO4)CC2)cc1,-18%,-27%
CC(C)CC1C(=O)N(Cc2cn(CCC3OCCO3)nn2)CCS(=O)(=O)N1Cc1ccc(-c2ccc(Cl)c(Cl)c2)cc1 (configuration not stated),?,-8%

# New compounds follow
SMILES,Vaccinia Venus,Vaccinia mCherry
C/C=C(\C)C(=O)OC1CC(OC(C)=O)[C@@]2(C(=O)OC)COC3C2[C@@]12CO[C@](O)(C(=O)OC)C2[C@](C)(C12OC1(C)C1CC2OC2OC=C[C@]21O)C3O (some centres not stated),-7%,i
CCOc1ccc(CC(=O)N/N=C(\C)c2cccnc2)cc1,-13%,0%
COc1ccccc1/C=C\C(=O)NCC(=O)N/N=C(\C)Cc1ccccc1,-7%,-1%
CC(=O)Nc1ccccc1OCCOc1ccc(Br)cc1,-23%,13µM*
CC1CCCCC12NC(=O)N(CC(=O)Nc1ccc(Cl)c(S(=O)(=O)N3CCOCC3)c1)C2=O (configuration not stated),0%,i
CCOc1ccc(CCNC(=O)c2cc3c(-c4ccc(OC)c(OC)c4)nn(C)c3s2)cc1OCC,?,?
Cc1cc(NC(=O)CCC(=O)N(c2cccc(F)c2)C(C(=O)NC2CCCC2)c2ccncc2)no1 (configuration not stated),2%,-15%
COC(=O)Nc1ccc(S(=O)(=O)N2CCC(C(=O)NC3CCCCC3)CC2)cc1,-8%,-12%
Cc1ccc(NC(=O)C2(c3ccccc3)CCOCC2)c([N+](=O)[O-])c1,-18%,-5%
COc1cc(OCc2ccccc2)c(OC)c(OCc2ccccc2)c1,-5%,?
CCCCN(C)CCNC(=O)c1c[nH]c2ccc(S(=O)(=O)N(CC)CC)cc2c1=O,-2%,-12%
C[C@@H](NC(=O)Cn1ccc(N)nc1=O)c1cccc2ccccc12,-6%,i
O=C1CCC(=O)N1CC1CC2CCC1C2 (configuration not stated),-6%,-4%
COC(C[C@H]1O[C@@H]1[C@H](O)[C@H](C)OCc1ccccc1)OC,-8%,i
CCCN(CCC)S(=O)(=O)c1ccc2c(c1)N(CC(=O)NC(C)c1ccccc1)C(=O)CS2 (configuration not stated),-19%,-22%
Cc1ccccc1CN(C)C[C@H]1OCc2cnnn2CCCC(=O)N([C@@H](C)CO)C[C@@H]1C,-4%,i
CCOC(=O)c1cc2c(=O)n3ccccc3nc2n(CC2CCCO2)c1=NC(=O)c1ccc(OCC)cc1 (configuration not stated),0%,-11%
C/C(=C\C(=O)c1ccc(Cl)cc1Cl)N(C)C,-5%,i
O=C(NCc1ccccc1)c1cccc(S(=O)(=O)N2CCCCC2)c1,-3%,-16%
COc1cccc(-c2cc(C(=O)N3CCN(c4ncccn4)CC3)c3ccccc3n2)c1,-8%,-10%
Cc1nnc(SC(C)C(=O)Nc2ccc3c(c2)OCCO3)s1 (configuration not stated),-12%,i
COc1cccc(-c2cn3c(n2)sc2cc(C(=O)NC4CCCCCC4)ccc23)c1,?,-27%
CCOc1ccc(C(=O)c2nc3c(n2O)CCCCC3)cc1,-21%,-23%
O=C(NCCCl)NNC(=O)c1cc2ccccc2cc1O,-16%,-8%
CNc1ccccc1C(=O)O,34%[activator],26%

# (continued)
SMILES,Vaccinia Venus,Vaccinia mCherry
CC(C)NC(=O)c1ccc2c(c1)N(Cc1cccc(Cl)c1)C(=O)c1ccccc1S2=O (configuration not stated),0%,-13%
COc1cccc(N2C(=O)CC(N3CCC(c4nc5ccccc5[nH]4)CC3)C2=O)c1 (configuration not stated),-7%,-15%
COc1cc(C(=O)NCC2CCCO2)ccc1OCc1ccccc1 (configuration not stated),-13%,-8%
O=C(NCC(=O)N(c1cccnc1)C(C(=O)NC1CCCCC1)c1cccnc1)c1ccco1 (configuration not stated),-8%,-10%
O=C(OCc1ccccc1)N1CCC2CC1c1c(Cl)cccc12 (configuration not stated),-12%,-28%
CC(=O)c1cccc(-n2c(=O)c3c4c(sc3n(CC(=O)c3ccccc3)c2=O)CN(C(C)=O)CC4)c1,8%,1%
COC(=O)c1nc(NC(=O)c2ccc(F)cc2)n[nH]1,0%,i
COc1ccc(NS(=O)(=O)c2cccc(C(=O)NCC(c3ccco3)N3CCCC3)c2)cc1 (configuration not stated),-9%,?
Cc1cc(C)c(C(=O)CSc2nc3ccccc3c(=O)[nH]2)cc1C,-6%,i
Cc1nc(-c2cccc(F)c2)sc1CCNC(=O)C(=O)Nc1ccc2c(c1)OCO2,-17%,-13%
COc1cc(/C=N/NC(=O)c2ccncc2)ccc1O,-5%&-10%,-4%&-14%
COc1ccc(C2=NOC(Cn3nc(-c4ccccc4)cc3C(=O)NCc3ccccc3OC)C2)cc1 (configuration not stated),-7%,i
CCOc1ccc(CN(C)C(=O)[C@H](C)NC(=O)c2ccco2)cc1OC,2%,6%
CC(Nc1cc(N2CCNCC2)ccc1[N+](=O)[O-])c1ccccc1 (configuration not stated),?,14µM*
COc1ccc(NC(=O)CN(C)CC(=O)NCCc2ccc(F)cc2)cc1,-16%,-18%
CC(Oc1ccc(Br)cc1)C(=O)NC1CCN(Cc2ccccc2)CC1 (configuration not stated),-16%,-4%
CN(C)c1ccccc1C(=O)N1CCCC(Nc2ccc(F)cc2)C1 (configuration not stated),13%[7.34 µM],i[7.34 µM]
CC1CCN(C2=C(NS(=O)(=O)c3ccc(Cl)cc3)C(=O)c3ccccc3C2=O)CC1,-8%,-24%
C1CCCCCC(NCCN2CCNCC2)CCCCC1,-12%,-25%
O=C(NC1CC1)C1Nc2ccc(OC(F)(F)F)cc2C2C=CCC12 (configuration not stated),-17%,-16%
O=C(O)C1CCN(Cc2ccccn2)CC1,0%,i
O=C(Nc1cc(Cl)cc(Cl)c1)N[C@@H]1CC[C@@H](CCNS(=O)(=O)c2cccc(F)c2)O[C@@H]1CO,?,i
C#CCOCCOCCOCCNc1nc(N2CCN(C(=O)[C@H](C)n3cc(CCC(=O)O)nn3)CC2)nc(N2CCN(C(=O)[C@H](CCCCN)n3cc(CCCC)nn3)CC2)n1,-4%,-10%
Cc1cc(NC(=O)COC(=O)[C@@H]2CCCN2C(=O)c2cccs2)no1,-1%,-15%
CC(C)C1C(C#N)=C(N)Oc2n[nH]c(-c3ccc4ccccc4c3)c21 (configuration not stated),?,?

# (next part)
SMILES,Vaccinia Venus,Vaccinia mCherry
O=C(Cc1ccccc1)NCC(=O)OC(c1ccccc1)c1ccccc1,-3%,-6%
Cc1oc(-c2cccs2)nc1CS(=O)CC(=O)NCCc1ccccc1 (configuration not stated),-10%,?
CCC(=O)NC(=S)Nc1ccc(NC(=S)NC(=O)c2ccccc2)cc1,-9%,i
COc1ccccc1CC(NC(C)=O)C(=O)NC1CCN(C(=O)NCc2ccccc2)CC1 (configuration not stated),-6%,12%
Cc1onc(-c2c(F)cccc2Cl)c1C(=O)Nc1nccs1,-14%,-20%
COc1ccc(N2CCN(CCCNC(=O)C(=O)c3c[nH]c4ccccc34)CC2)cc1,-26%,?
C#C[C@]1(O)CCC2C3CCC4=C(CCC(=O)C4)C3CC[C@@]21C (some centres not stated),-19%,-1%
CC(=O)N1CCc2cc(Br)cc(S(=O)(=O)N3CCN(c4cc(C)ccc4C)CC3)c21,4%,-5%
FC(F)(F)c1cccc(NC(=S)NCC2COc3ccccc3O2)c1 (configuration not stated),?,-17%
O=C(c1ccc(Cl)cc1)n1nc(-c2ccco2)nc1NCc1cccs1,-8%,-8%
COc1cc(SC)ccc1C(=O)Nc1ccc2c(c1)OCO2,?,i
CS(=O)(=O)NCC(c1ccco1)N1CCN(c2ccc(F)cc2)CC1 (configuration not stated),-4%&-4%,-7%&-10%
COc1ccc(N2CCN(C(=O)C3CCCN(S(=O)(=O)c4ccc(F)cc4)C3)CC2)cc1 (configuration not stated),-22%,i
CC(C=NNc1ccc([N+](=O)[O-])cn1)=Cc1ccccc1,9%,-9%
Cc1cc(C)cc(N(C(=O)c2csnn2)C(C(=O)NC2CCCC2)c2ccccn2)c1 (configuration not stated),-6%,-5%
O=C(CCC(=O)OCc1ccc([N+](=O)[O-])cc1)Nc1ccc(F)cc1,-5%,i
Cc1cn2c(=O)cc(COc3ccccc3NC(=O)c3ccco3)nc2s1,-10%,-2%
CC(C)c1ccc(N2C=Nc3ccc(C(C)C)cc3C2)cc1,?,i
Cc1cc(C)n(-c2nnc(Nc3ccc(C)c(Cl)c3)c3ccccc23)n1,-19%,-1%
O=C(NC1CCCCCC1)C1CCCN(c2ncccn2)C1 (configuration not stated),4%,-14%
Cc1noc(C)c1COc1ccccc1C(=O)N1CCN(S(=O)(=O)c2cccc([N+](=O)[O-])c2)CC1,-13%,-19%
CC(C)Cc1ccc(-c2ccc3nccn3c2)cc1,-19%,i
CC(=O)NC(Cc1ccc(N(CCCl)CCCl)cc1)C(=O)NC(CC(C)C)C(=O)O (configuration not stated),-9%,-14%
CCC(=O)N=c1ccn(C2=Nc3ccccc3NC2=C(C#N)C#N)cc1,-1%,-13%
COc1ccc(/C=C/C(=O)Nc2ccccc2F)cc1S(=O)(=O)N1CCOCC1,-19%,-1%
